Bioassay records: PubChem, several laboratories
HSV augment = HSV replication enhancement; maximum fold increase; HSV replication augmentation in cells, fold increase; 220,000 compounds, 0.005% hits;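 active means peak rise of 1.5-fold or more in the series; inconclusive means self-fluorescent or not available for retest; tested in PC3 cells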;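 further: first round at 10 µM; read as green reporter fluorescence; hits show the peak of a series up to 25 µM; 1 = signal of infected wells without compound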
PKD1 inh = blocks activity of human protein kinase D1. Q15139. PKD1 kinase fluorescence polarization assay. inhibition, %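 (about 10 µM by stock and volumes)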. 200,000 compounds, 0.056% hits. AID 797;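 active means inhibition of 50% or more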;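 further: controls were vehicle for no effect and a reference inhibitor for full effect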
Target sequence (Q15139 whole entry, looked up): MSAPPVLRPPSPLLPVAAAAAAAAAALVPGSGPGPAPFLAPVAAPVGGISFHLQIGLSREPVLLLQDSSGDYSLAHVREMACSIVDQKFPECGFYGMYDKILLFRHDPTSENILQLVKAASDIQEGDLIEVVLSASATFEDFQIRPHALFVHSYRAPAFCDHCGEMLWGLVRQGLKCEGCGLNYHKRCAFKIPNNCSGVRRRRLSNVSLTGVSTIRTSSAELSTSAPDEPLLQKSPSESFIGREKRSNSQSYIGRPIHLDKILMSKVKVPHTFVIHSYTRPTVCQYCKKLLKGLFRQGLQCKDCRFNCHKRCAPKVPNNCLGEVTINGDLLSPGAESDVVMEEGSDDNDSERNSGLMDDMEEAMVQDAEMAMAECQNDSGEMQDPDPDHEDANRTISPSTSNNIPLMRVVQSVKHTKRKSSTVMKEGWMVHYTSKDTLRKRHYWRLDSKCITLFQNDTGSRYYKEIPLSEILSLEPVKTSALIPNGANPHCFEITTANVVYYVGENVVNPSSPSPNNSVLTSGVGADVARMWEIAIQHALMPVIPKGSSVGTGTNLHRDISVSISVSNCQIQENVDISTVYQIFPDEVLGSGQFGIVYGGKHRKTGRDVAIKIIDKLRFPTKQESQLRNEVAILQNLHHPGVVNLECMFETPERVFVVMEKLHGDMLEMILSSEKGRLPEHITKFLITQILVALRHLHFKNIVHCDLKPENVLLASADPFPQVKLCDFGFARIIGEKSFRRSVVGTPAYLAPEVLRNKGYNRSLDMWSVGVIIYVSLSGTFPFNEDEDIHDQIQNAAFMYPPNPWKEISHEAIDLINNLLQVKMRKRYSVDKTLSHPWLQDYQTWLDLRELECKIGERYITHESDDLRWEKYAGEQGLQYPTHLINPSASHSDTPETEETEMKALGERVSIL
RGS16-Gao HTS = regulators of human RGS16-Galphao interaction. 220,000 compounds, 0.38% hits. bead-based flow cytometry RGS16-Galphao binding, fluorescence; actives lie on both sides. binding response (% of control), % at 10 µM. O15492+P09471;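 active means below 25% or above 175%, edge rows of some plates excepted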;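 further: Galphao activated by GDP with aluminum fluoride before binding; 100% = wells without compound and 0% = beads without RGS; some results beyond the cut were filed as inactive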
INS promoter inh = TRM-6 insulin promoter activity inhibition; TRM-6 cells (human fetal islet line), insulin promoter-eGFP reporter, imaging; reporter expression induced with tamoxifen; inhibition, % at 2 µM; 130,000 compounds, 0.9% hits;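 active means inhibition above the mean plus 3 SD, with well images judged a real hit on visual review, cut at about 60% in these data, passing the limit was not always enough; inconclusive means inhibition over the cutoff but images rejected on review; inactive means inhibition not above the cutoff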
GALR2 ag = agonists of human galanin receptor 2 (GALR2). O43603. GALR2-expressing cells, agonist activation read-out. activation, %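 (tested at 5 µM)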. 140,000 compounds, 0.48% hits;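 active means above mean plus 3 SD of all compounds, about 5% in these data, not always enough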;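 further: 0% = vehicle buffer wells and 100% = reference agonist at full effect; tested in CHO reporter cells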
INS promoter inh cell count = second read-out of INS promoter inh, no call of its own (marks repeat the call); normalized cell count, %; measured here: cell count, toxicity; reference of the scale not given here;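 cells exposed to compound for 48 h; stained nuclei by imaging scaled within each plate; lower means fewer cells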
HSV augment primary fold = also measured in HSV augment; calls as there; fold increase; compound at 10 µM; measured here: primary screen fold increase 10 uM; tested in PC3 cells;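 GFP signal in the first replicate; 1 = infected wells without compound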
The depositor's hits bear a star; i = inactive; ? = inconclusive; / = not tested or not shown.

Structure	HSV augment	HSV augment primary fold	PKD1 inh	RGS16-Gao HTS	INS promoter inh	INS promoter inh cell count	GALR2 ag
COc1ccc(NC(=O)C2OCCc3ccccc32)c(OC)c1 (configuration not stated)	i	1.08	4.1	103.3	37.5	84.3	-1.5
CC1(c2nnc(-c3ccc(Cl)cc3)o2)CC(c2ccc([N+](=O)[O-])cc2)=NO1 (configuration not stated)	i	1	/	101.6	/	/	/
COc1ccc(OCC(=O)NNC(=O)c2ccc(-c3ccccc3)cc2)cc1	/	/	-2.4	93.8	4.0	130.5	-1.4
O=S1(=O)NC(=NCCOCCO)c2ccccc21	i	1.12	0.5	103.0	/	/	/
Cc1nc([N+](=O)[O-])c(Br)n1CC(=O)c1ccc(Br)cc1	i	0.91	-6.2	101.5	45.2	106.0	-1.3
O=C(NC1CCCCC1)C(c1ccncc1)N(C(=O)Cn1nnc(-c2cccs2)n1)C1CCCC1 (configuration not stated)	i	1.03	3.6	108.3	30.2	122.9	-1.8
COc1ccc(C(=O)N(CN2CCCC2=O)c2cc(C)on2)cc1OC	i	0.81	-6.0	102.6	/	/	-3.3
O=C(COC(=O)C1CC1)Nc1ncc(C(F)(F)F)cc1Cl	/	/	5.6	98.1	21.4	114.9	/
C=C(C)c1cccc(C(C)(C)NC(=O)N(Cc2ccccc2)Cc2ccco2)c1	/	/	2.6	101.2	-43.5	109.2	-0.1
C=CCc1cccc2cc(C(=O)OCC(=O)c3ccccc3)c(=O)oc12	i	1.11	1.7	105.1	-185.7	67.6	-4.2
O=C(CN1CCOCC1)Nc1ccccc1-c1ccccc1	i	1.02	7.8	86.3	/	/	0.1
CC(C)CNc1nnnc2c1sc1nc(N3CCOCC3)c3c(c12)CC(C)(C)SC3	i	0.987	-4.4	107.2	-16.1	118.1	-0.3
O=C(CCCN1C(=O)c2cccc3cccc(c23)C1=O)NC1CCS(=O)(=O)C1 (configuration not stated)	i	0.95	-1.0	102.2	/	/	/
Cc1cc2nc(C)c(=O)n(C)c2cc1C	i	0.85	-4.3	81.8	46.1	129.3	-0.5
O=C(NCCCCCCNC(=O)c1ccc(Br)s1)c1ccc(Br)s1	i	0.85	-3.6	101.9	53.9	96.4	0.1
O=C1OC(c2ccccc2)c2ccccc21 (configuration not stated)	i	0.94	8.5	104.5	7.7	189.8	-0.8
CCOC(=O)c1c(NC(C)=O)sc2c(OC(C)=O)cccc12	i	1.05	-0.6	91.8	/	/	1.0
Cc1ccc(NC(=O)CSc2nnc(-c3cnccn3)n2Cc2ccco2)cc1	i	0.92	-1.3	100.3	25.0	111.0	1.2
O=C(O)CNc1nc(-c2ccccc2)nc2c1oc1ccccc12	i	0.93	/	98.0	/	/	/
N=C1/C(=C/c2cccn2Cc2ccc(F)cc2)C(=O)N=C2SC=CN12	i	1.05	-6.4	90.6	52.9	99.6	/
CC(C)CN1CCNC(=O)C1CC(=O)NCc1cnn(-c2cccc(F)c2)c1 (configuration not stated)	i	0.97	2.4	98.2	/	/	/
Cc1ccc(C)c2[nH]c(=O)c(CN(Cc3ccco3)S(=O)(=O)c3ccc4c(c3)OCCO4)cc12	i	0.83	-1.8	112.1	-13.9	130.4	-0.1
O=C(O)c1ccc(-c2ccccn2)s1	i	1.03	5.5	96.7	33.3	77.5	/
COc1ccc(C(=O)NC(C)c2nnc(SCc3ccc(Cl)c(Cl)c3)n2C)cc1 (configuration not stated)	i	1.1	-6.4	118.3	-115.4	76.7	0.6
CCOC(=O)C1CCCCN1Cc1cccc(F)c1 (configuration not stated)	i	0.88	4.2	94.7	6.5	109.8	-0.6
Nn1c(SCCOc2ccccc2)nnc1-c1cccnc1	i	1.02	-2.0	99.0	38.7	119.6	-1.7
O=C(/C=C/c1ccc2c(c1)OCCO2)c1ccccc1	i	0.87	/	104.1	/	/	/
Cn1c(=O)[nH]c(=O)c2c1nc(Sc1ncccn1)n2CCCc1ccccc1	i	0.87	2.1	106.2	/	/	-3.7
N#Cc1cnn(-c2nc3sc4c(c3c(=O)[nH]2)CCCC4)c1N	/	/	3.2	100.4	0.0	110.7	-2.1
CC1=CCC2C(=O)N(c3ccc4ccccc4n3)C(=O)C2C1 (configuration not stated)	i	0.97	-8.0	96.2	-55.0	109.6	-1.9
Cc1cc(C)c(N2CCN(S(=O)(=O)N3CCCCCC3)CC2)c(C)c1	i	1.03	1.6	102.0	3.9	120.6	-1.4
O=C(Cc1cccs1)NCC1CCCO1 (configuration not stated)	i	0.87	3.4	99.7	-16.7	63.2	-0.3
C/C(N)=C(/C#N)C(=O)COC(=O)c1cc(-c2ccccc2)nc2ccc(Br)cc12	i	0.91	-1.9	94.2	/	/	/
Cc1cc(NS(=O)(=O)c2ccc(NC(=S)NC(=O)c3ccncc3)cc2)no1	i	0.98	/	105.5	/	/	/
Cc1ccccc1NC(=S)N/N=C/c1ccc(O)cc1O	i	0.79	/	97.8	/	/	/
Clc1nc(CN2CCOCC2)nc2sc3c(c12)CCC3	i	1.06	1.4	102.3	/	/	/
CCCCCn1c(CNC(C)=O)nc2ccccc21	i	0.8	2.7	99.4	-30.8	47.0	-1.3
CCN(CCCn1c(SCC#N)nc2ccccc2c1=O)c1ccccc1	i	0.78	8.9	101.5	/	/	-1.4
CC1CCc2c(sc(NC(=O)C3CCCO3)c2C#N)C1 (configuration not stated)	i	0.8	-5.7	97.6	23.1	98.5	/
Cc1nc(C)c(-c2ccccc2)c(=O)[nH]1	i	0.84	-0.7	99.0	/	/	1.0
COc1cc(C2C(C(=O)OC(C)C)=C(C)Nc3[nH]c(=O)[nH]c(=O)c32)ccc1O (configuration not stated)	i	0.86	0.0	109.3	54.2	98.0	-3.2
O=C(NCc1nnc(SCC(=O)N2CCCc3ccccc32)o1)c1ccco1	i	0.97	-5.8	109.4	-36.4	211.7	/
CC1CCCC(C)N1C(=O)c1cc(-c2cccs2)on1 (configuration not stated)	i	0.98	-0.9	101.4	/	/	-1.2
Cc1ccc(NC2=NC3(CCCCC3)N=C(N)N2)c(C)c1	i	0.73	-8.1	132.3	-9.5	113.9	-3.5
O=C(C1CCC1)N1CCc2cc(S(=O)(=O)NC3CCCC3)ccc21	i	1.05	13.3	98.3	6.2	83.9	-2.9
NC(=O)C1CCN(C(=O)c2ccc(Oc3cc(Cl)cc(Cl)c3)o2)CC1	i	0.99	/	101.9	/	/	/
C#CCNC(=O)C1=C[C@H](c2ccc(Br)cc2)C[C@H](OCCCCO)O1	i	0.98	9.4	91.5	/	/	/
COc1ccccc1OCCNC(=O)Cc1ccc(Cl)c(Cl)c1	i	0.95	-6.9	94.3	-100.0	128.3	/
CC(=O)Oc1ccc(C(=O)[C@H]2[C@H]3C(=O)N(c4ccccc4)C(=O)[C@H]3[C@@H]3C=CC=NN32)cc1	i	1.14	6.3	103.6	0.0	121.2	-0.1
CN1C(=O)/C(=C/c2ccc(O)c([N+](=O)[O-])c2)N(C)C1=S	i	0.7	-6.3	109.1	/	/	/
Cc1ccccc1C(=O)N1CCC(C(=O)Nc2nccs2)CC1	i	0.98	-1.1	100.4	/	/	/
CS(=O)(=O)N(Cc1ccc(Cl)cc1)c1ccc(C(=O)N2CCN(c3ccccc3)CC2)cc1	i	0.93	-0.5	91.7	-8.3	98.4	-1.3
C=CCn1c(SCC(=O)c2ccc(O)c(O)c2)nnc1-c1cccnc1	i	0.99	/	97.8	/	/	/
CCCOc1ccc(NC(=O)C2CC(=O)N(C)C(=Nc3cccc(OC)c3)S2)cc1 (configuration not stated)	i	0.97	3.0	101.2	/	/	/
CCCCCCC(C)NC(=S)Nc1cc(S(=O)(=O)N(C)C)ccc1C (configuration not stated)	i	0.9	-6.6	104.9	-35.7	109.8	0.0
CCOC(=O)c1cccc(NC(=O)CN(C)S(=O)(=O)c2cnc[nH]2)c1	i	0.963	-15.7	98.3	5.6	115.7	-1.3
O=c1[nH]c(CCl)nc2cc(-c3ccc(Cl)cc3)sc12	i	0.8	-1.9	98.7	16.4	119.7	-0.1
Nn1c(SCc2ccc(Br)cc2)nnc1-c1ccccn1	i	1.01	2.1	97.2	/	/	/
COc1ccc(-c2c(NC(=O)c3ccco3)n(-c3ccc(C)cc3)nc(C)c2=O)cc1	i	0.92	/	127.5	/	/	/
O=C(NCC(=O)N(c1cccc(F)c1)C(C(=O)NC1CCCC1)c1cccnc1)c1cccs1 (configuration not stated)	i	0.95	-11.6	99.0	-125.0	88.2	/

Entries of single compounds as entered above. Values in the order: HSV augment	HSV augment primary fold	PKD1 inh	RGS16-Gao HTS	INS promoter inh	INS promoter inh cell count	GALR2 ag
`Cc1ccccc1C(=O)N1CCC(C(=O)Nc2nccs2)CC1` in the list: i	0.98	-1.1	100.4	/	/	/
`CCCOc1ccc(NC(=O)C2CC(=O)N(C)C(=Nc3cccc(OC)c3)S2)cc1` (configuration not stated) in the list: i	0.97	3.0	101.2	/	/	/

A second format for two compounds above:
Below each SMILES – HSV augment, HSV augment primary fold, PKD1 inh, RGS16-Gao HTS, INS promoter inh, INS promoter inh cell count, GALR2 ag
- O=C(Cc1cccs1)NCC1CCCO1 (configuration not stated)
→ i, 0.87, 3.4, 99.7, -16.7, 63.2, -0.3
- Cc1ccccc1NC(=S)N/N=C/c1ccc(O)cc1O
→ i, 0.79, /, 97.8, /, /, /

The list continues.
SMILES | HSV augment | HSV augment primary fold | PKD1 inh | RGS16-Gao HTS | INS promoter inh | INS promoter inh cell count | GALR2 ag
COc1ccc(C(=O)C2CCCCC2=O)cc1 (configuration not stated) | i | 0.993 | -12.4 | 102.7 | -184.0 | 97.0 | -1.6
N=C(N)N=Nc1c(O)[nH]c2ccc(Br)cc12 | i | 1.07 | 0.6 | 98.8 | 0.0 | 117.4 | /
O=C(Nc1ccc(S(=O)(=O)Nc2nccs2)cc1)C1=NN(c2ccccc2)C(=O)CC1 | i | 0.81 | / | 104.8 | / | / | /
CCOC(=O)c1c(/N=C/c2ccccc2O)sc2c1CCC2 | i | 1.09 | 12.4 | 106.2 | / | / | -0.2
CCN(CC)S(=O)(=O)c1cccc(C(=O)Nc2ccccc2)c1 | i | 0.85 | -7.1 | 107.2 | / | / | -0.1
Cc1sc2ncnc(N3CCN(CCOc4ccc(Cl)cc4)CC3)c2c1C | i | 0.84 | 2.0 | 104.5 | 53.3 | 83.4 | -2.9
O=C1CN(C(=O)c2ccc(Br)o2)C(c2ccccc2)c2cc(Br)ccc2N1 (configuration not stated) | / | / | -10.5 | 104.1 | / | / | -0.8
O=C(OCC(=O)N1CCc2ccccc21)c1cccnc1Cl | i | 0.87 | -3.5 | 62.5 | 20.0 | 145.3 | -2.8
CCOc1ccc(CC(=O)N/N=C/c2cccnc2)cc1 | i | 1.07 | / | 96.5 | / | / | /
Cc1ccc(NC(=O)c2ccc(CSc3nnc(-c4ccncc4)n3C)cc2)c(C)c1 | i | 0.95 | -6.1 | 92.6 | 0.0 | 121.2 | -1.7
Cc1onc(-c2ccccc2Cl)c1C(=O)Oc1cc(N)n(S(=O)(=O)c2ccc(F)cc2)n1 | i | 1.1 | 11.9 | 101.3 | 37.5 | 110.4 | -2.0
CCOC(=O)c1c(NC(=S)Nc2cccc(C)c2)sc2c1CC(C)(C)SC2 | ? | / | -1.5 | 105.9 | / | / | -0.7
Cc1cc(C)c2c(C)[nH]nc2n1 | i | 0.88 | / | 92.5 | / | / | /
Cc1cc(NC(=O)/C=C\C(=O)O)c([N+](=O)[O-])cc1C | i | 1.1 | / | 99.5 | / | / | /
O=C(CCN=C1NS(=O)(=O)c2ccccc21)N1CCc2ccccc2C1 | i | 0.97 | 1.4 | 106.2 | 20.0 | 133.5 | /
Cc1ccc(-c2ccc(=O)n(CC(=O)NCCN3CCCCC3C)n2)cc1 (configuration not stated) | i | 0.97 | -12.0 | 100.2 | -53.1 | 87.2 | -2.0
COc1ccc(N(C(=O)c2cccc(OC)c2OC)C2C=CS(=O)(=O)C2)cc1 (configuration not stated) | i | 0.87 | 2.6 | 100.5 | / | / | -0.3
COc1ccc(C2SCC(C(=O)O)N2C(C)=O)cc1 (configuration not stated) | i | 1.06 | 4.9 | 102.2 | / | / | -0.6
